Source: PubChem BioAssay (National Center for Advancing Translational Sciences (NCATS))
SARS PLP yeast: SARS-CoV PLP inhibition in yeast; S. cerevisiae expressing SARS-CoV PLpro, growth rescue; control for the full effect not named in the record; Potency, µM (doses to about 32.9 µM), for the others: at the highest dose activity, positive = growth rescue; 330,000 tested, 0.19% active; AID 485353; active means well fitted rising curve with a large enough effect; inconclusive means small, poorly fitted or top-dose-only effect; inactive means no such curve, though single readings can be large or run the other way; note: 0% is about no effect; nearly all actives have a fitted effect of over 55% in size; growth read by luminescence after 48 h
Lassa entry inh: Lassa virus entry inhibition; Lassa virus pseudotype entry inhibition, cell reporter; control for the full effect not named in the record; Potency, µM (series often up to 37.9 µM), for the others: at the highest dose activity change, negative = inhibition, most hits filed as inhibitors; 300,000 tested, 1.2% active; AID 540256; active means well fitted inhibition curve with a large enough effect; inconclusive means small, poorly fitted or top-dose-only effect, or effect the other way; inactive means flat fitted curve, though single readings scatter; tested in HEK293 cells; note: % is set by controls: 0 for no effect and ±100 for the full control effect; nearly all actives have a fitted effect of over 50% in size; luciferase read-out
Cruzain inh Det: blocks cruzain activity in presence of Triton detergent | P25779 | purified cruzain, Z-FR-AMC fluorescence, 0.01% Triton | Potency, µM, inactives show max response, negative = inhibition, hits mostly inhibitors | 200,000 tested, 0.43% active | AID 1478;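 note: plate controls were neutral wells for no effect and buffer without enzyme for full effect; nearly all actives have a fitted effect of over 40% in size; top concentration of the series not given in the record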
Target sequence (P25779 123-467 limits assumed): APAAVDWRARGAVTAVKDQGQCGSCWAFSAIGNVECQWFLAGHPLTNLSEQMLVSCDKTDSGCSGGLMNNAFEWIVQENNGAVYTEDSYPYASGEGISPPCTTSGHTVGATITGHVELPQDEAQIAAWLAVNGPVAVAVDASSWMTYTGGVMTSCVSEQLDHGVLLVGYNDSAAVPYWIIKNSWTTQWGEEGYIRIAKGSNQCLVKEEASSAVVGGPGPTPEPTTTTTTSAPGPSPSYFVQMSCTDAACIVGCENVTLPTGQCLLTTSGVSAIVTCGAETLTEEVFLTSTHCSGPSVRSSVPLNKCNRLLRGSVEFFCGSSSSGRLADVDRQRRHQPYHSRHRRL
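Z-FR-AMC hydrolysis (2 uM substrate) by cruzain (1.5 nM) monitored kinetically at ex 360/em 450 nm after 15 min room-temperature compound exposure; 0.01% Triton X-100, pH 5.5, 5 mM DTT.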
Cruzain noTriton: inhibitors of Trypanosoma cruzi cruzain without detergent | 200,000 tested, 2.3% active | P25779 | purified cruzain, Z-FR-AMC fluorescence, no detergent | Potency, µM, without a hit: max response, negative = inhibition, actives largely listed as inhibitors;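 note: plate controls were enzyme without inhibitor for no effect and buffer without enzyme for full effect; nearly all actives have a fitted effect of over 40% in size; top concentration of the series not given in the record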
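Detergent-free condition (0.00005% Triton X-100) in acetate buffer pH 5.5 with DTT. 1.5 nM enzyme and compound were pre-mixed 15 min, then 2 uM Z-FR-AMC substrate added; reaction progress from fluorescence change between first and third reads (60 s).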
NS1 function inh: blocks influenza NS1 protein function; Potency, µM (top dose mostly 46.1 µM), for inactives: at the highest dose activity, positive = more growth; 270,000 tested, 0.4% active; S. cerevisiae slowed by influenza A NS1, growth recovery by OD600; AID 2326; active means well fitted rising curve with a large enough effect; inconclusive means small, poorly fitted or top-dose-only effect; inactive means no such curve, though single readings can be large or run the other way; note: nearly all actives have a fitted effect of over 50% in size
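OD600 was taken as the measure of yeast growth restored by compound in an NS1-expressing S. cerevisiae strain. Cells had been washed out of glucose medium and diluted 1:100 into galactose -URA medium, pH 6.0.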
2A StopGo: FMDV 2A StopGo reporter, luciferase signal; human cells with a luciferase reporter of 2A StopGo recoding; control for the full effect not named in the record; Potency, µM (titrated, usually from 57.9 µM), without a hit: at the highest dose signal change, negative = less light; 410,000 tested, 1.2% active; active = well fitted falling curve with a large enough effect; inconclusive = small, poorly fitted or top-dose-only effect; inactive = no such curve, though single readings can be large or run the other way; tested in HEK293T cells; note: % is set by controls: 0 for no effect and ±100 for the full control effect; nearly all actives have a fitted effect of over 45% in size; luciferase light after 4 h
RE007 growth inh: less growth of the S. pombe RE007 Vpr strain | S. pombe RE007 Vpr strain, BacTiter-Glo ATP luminescence, 24 h; control for the full effect not named in the record | 360,000 tested, 0.21% active | AID 651644 | Potency, µM (titrated, usually from 92.2 µM), inactives show at the top dose activity change, negative = less growth; active = well fitted falling curve with a large enough effect; inconclusive = small, poorly fitted or top-dose-only effect; inactive = no such curve, though single readings can be large or run the other way;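 note: % is set by controls: 0 for no effect and ±100 for the full control effect; nearly all actives have a fitted effect of over 50% in size; the assay follows cell death caused by Vpr and the record does not say whether a fall means rescue or toxicity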
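Fission yeast strain RE007, carrying one chromosomally integrated HIV-1 vpr copy, was seeded at OD 0.01 in PMG+AL medium with 23 nL pinned compound. After 24 h at 30 °C and 99% humidity, viability was read by BacTiter-Glo luminescence.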
Marburg entry inh: blocks Marburg virus binding to or entry into cells. Marburg virus pseudotyped entry inhibition, cell reporter; control for the full effect not named in the record; about a third of the inactives were read at about 46 µM. Potency, µM (highest dose often 37.8 µM), for inactives: at the top dose activity change, negative = inhibition, hits mostly inhibitors. 300,000 tested, 1.8% active. AID 540276; active = well fitted inhibition curve with a large enough effect; inconclusive = small, poorly fitted or top-dose-only effect, or effect the other way; inactive = flat fitted curve, though single readings scatter; tested in HEK293 cells; about a fifth of its hits are not listed in these tables; note: % is set by controls: 0 for no effect and ±100 for the full control effect; luciferase read-out
* hit, by the source's call; ? = inconclusive; . = no result given; & = joins results of further samples; [ ] = remark or other dose. Unless noted, calls come from the whole dose curve; as a rule, active = well fitted curve in the direction sought with a large enough effect; inconclusive = small, poorly fitted or top-dose-only effect, or another doubt; inactive = no such curve, though single readings can be large; an effect the other way counts as inactive or inconclusive. Potency is the fitted concentration of half-maximal effect.

SMILES	SARS PLP yeast	Lassa entry inh	Cruzain inh Det	Cruzain noTriton	NS1 function inh	2A StopGo	RE007 growth inh	Marburg entry inh
Cc1cc(Br)ccc1NC(=O)CCN1C(=O)c2ccncc2C1=O	-1%	?	9.4%	5%	9%	12%	21%	2%
Nc1ccc(N2CCN(c3ccccc3)CC2)c(F)c1	0%	?	.	.	-3%	26%	-20%	25%[46.1 µM]
Cc1cc(C)cc(C(=O)NCC(=O)OCC(=O)N2CCN(S(=O)(=O)c3ccc4ccccc4c3)CC2)c1	7%	1%	-7.3%	15%	?	?	-11%	26%
O=[N+]([O-])c1cccc2ccc(N3CCOCC3)nc12	-7%	21%[46.1 µM]	.	.	-22%	15%	-14%	-11%[46.1 µM]
CCN(CC)S(=O)(=O)c1ccc2c(c1)nc(SC(C)C(N)=O)n2-c1ccc(OC)cc1 (stereo not given)	-1%	?	-4.1%	?	-5%	-15%	2%	?
Cc1cc(C(=O)CS(=O)(=O)c2ccccc2)cc(C)c1OC(=O)N(C)C	-2%	-19%[46.1 µM]	.	.	.	24%	5%	?
N#Cc1c(N2CCOCC2)nc(N)c2c(N)nc3c(c12)CC(CCl)O3 (stereo not given)	1%	-3%	.	.	3%	-20%	33%	18%[46.1 µM]
O=C(CSc1nc2ccccc2n1CCc1ccccc1)c1ccc(O)c(O)c1	3%	-13%	.	.	9%	5%	3%	1%&1%
CCCCCn1c(SCC(=O)OCC)nc2cc(C(=O)N3CCC(C(N)=O)CC3)ccc2c1=O	3%	21%	-2.0%	?	1%	35%[activator]	-6%	-25%
Nc1cc(Oc2ccc(Cl)cc2Cl)nc(N)n1	1%	-1%[46.1 µM]	.	.	-6%	71%[activator]	2%	?
O=c1c2ccccc2c(-c2n[nH]c(=S)o2)nn1Cc1ccccc1	-1%	-7%	.	.	.	-8%	-5%	11%
Cc1cccc(C)c1NC(=O)CC(C)c1ccccc1 (stereo not given)	-3%	-1%	.	.	1%	-11%	1%	-4%
Cc1nc(NCc2ccco2)c2cn[nH]c2n1	.	-12%[46.1 µM]	.	.	.	?	12%	-23%[46.1 µM]
Cc1ccc(CNC(=O)CN2C(=O)NC3(CCCC3)C2=O)cc1	4%	-2%[46.1 µM]	.	.	.	0%	8%	?
Cc1ccc(S(=O)(=O)NC(=O)c2cc(C)n(-c3cc(S(=O)(=O)N4CCOCC4)ccc3N3CCCC3)c2C)cc1	-5%	0%	-5.4%	29%	20%	3%	-4%	-2%
CC(C)(C)c1ccc(-c2nc(SCCCOc3ccccc3)n3[nH]c(=O)cc3n2)cc1	.	18%[46.1 µM]	-7.2%	13µM*	.	-16%	.	.
Cc1ccc(NC(=O)Cn2nc(Cc3ccncc3)c3ccccc3c2=O)c(Cl)c1	.	19%[46.1 µM]	-2.1%	6%	.	-20%	.	10%[46.1 µM]
O=C(CCc1ccccc1)Nc1ccc(NC(=O)c2ccco2)nc1	-7%	22%	-3.2%	-10%	-26%	52%[activator]	-1%	21%[46.1 µM]
O=C(NCCC1=CCCCC1)NC1CCCCC1	10%	?	0.2%	-4%	-7%	21%	33%	-4%
CCCCN1C(=O)NC(=O)C2(Cc3ccccc3N3CCOCC32)C1=O (stereo not given)	-2%	1%	-1.1%	-5%	-5%	-22%	14%	19%
COc1ccccc1CCNC(=O)C(=O)NCCC1CCCCN1S(=O)(=O)c1ccccc1 (stereo not given)	-1%	18%	.	.	.	-20%	-4%	?
CC(=O)Nc1cccc(C(=O)N/N=C/c2ccc(F)cc2)c1	-9%	?	-3.5%	6%	4%	3%	-11%	4%[46.1 µM]
O=C(/C=C/c1ccccc1)Nn1cnc2ccccc2c1=O	-10%	-1%	-3.2%	6%	-3%	-25%	7%	?
O=C(Nc1ccc(N2CCN(c3ncccc3C(F)(F)F)CC2)nc1)c1cccs1	-5%	11µM*	.	.	-55%	13µM*	-29%	13µM*
Cc1nc(C(=O)NCc2ccccc2)sc1C1(C)CC(c2cccc([N+](=O)[O-])c2)=NO1 (stereo not given)	-2%	.	.	.	6%	-9%	9%	.
O=C(Cc1ccccc1)NCCS(=O)c1ccc(Cl)cc1 (stereo not given)	-1%	4%	3.4%	-3%	-4%	0%	12%	?
Cn1c(CNS(=O)(=O)c2cccc(Cl)c2)cc(=O)n(C)c1=O	7%	27%[46.1 µM]	.	.	0%	6%	8%	6%[46.1 µM]
Cc1ccc2nc3c(cc2c1)CN(Cc1ccco1)C(=NCC1CCCO1)S3 (stereo not given)	0%	?	-2.8%	2%	-36%	-11%	-7%	-12%[46.1 µM]
CCC(C)(C)C1CCC(=NNc2nc3ccccc3[nH]2)CC1 (stereo not given)	8%	8.2µM*	-12%	-1%	1%	-17%	-3%	?
COc1ccc(CNCCNC(=O)c2nonc2N)cc1OC	1%	13%	0.8%	-6%	8%	0%	10%	0%&0%
Nc1ccc(C2(c3ccc(N)cc3)OC(=O)c3ccccc32)cc1	5%	-3%	.	.	17%	-9%	2%	23%
C=CCNC(=O)/C(C#N)=C/c1c(N2CCCCCC2)nc2ccccn2c1=O	-1%	.	.	.	-7%	-10%	0%	.
CC(=O)c1ccc(NC(=O)CN2CCCCCC2)cc1	-1%	3%[46.1 µM]	.	.	21%	5%	7%	1%[46.1 µM]
CCn1c(CSc2nc3ccccc3s2)nnc1SCC(=O)OC(C)(C)C	-1%	?	0.4%	3%	-50%	?	1%	-8%
CN(C)CCCNc1nc(-c2ccccc2)c2c(c1C#N)CC(C)(C)OC2	0%	.	.	.	-2%	-9%	-3%	.
Cc1[nH]c(=O)[nH]c1C(=O)CCCCC(=O)O	15%	0%	3.6%	14%	10%	-2%	10%	?
CCCc1nnc2n1N=C(c1ccc(C)cc1)CS2	2%	.	.	.	-32%	-10%	2%	.
CCN(CC(=O)Nc1ccc(NC(C)=O)cc1)C(=O)c1oc2c(ccc3ccccc32)c1C	4%	-15%	.	.	.	-19%	0%	11%[46.1 µM]
O=C(O)CCN1C(=O)c2ccc(NC(=O)CSc3ccc(Cl)cc3)cc2C1=O	-10%	22%[46.1 µM]	.	.	4%	-2%	-25%	5%[46.1 µM]
O=C(/C=C/c1c[nH]c2ccccc12)c1c(O)n(CCc2ccccc2)c(=O)[nH]c1=O	-2%	?	.	.	-1%	-27%	1%	4%[46.1 µM]
Cc1cccc(CCNC(=O)c2ccc3c(c2)nc2n3CCCCC2)c1	.	17%[46.1 µM]	-1.2%	-6%	.	-17%	.	.
CCOc1ccc2oc(=O)cc(CN3CCN(Cc4ccccc4)CC3)c2c1	8%	.	.	.	29%	-27%	-27%	.
CC(C)N1CCc2c(sc(NC(=S)NC(=O)c3ccccc3)c2C#N)C1	-2%	13%	-28%	0%	15%	19%	-7%	7%[46.1 µM]
COc1ccccc1OCc1ccc(C(=O)NC2CCCCC2)o1	-2%	?	.	.	-31%	-9%	8%	11%[46.1 µM]
Nc1ncc(N=Nc2cc(C(=O)O)ccc2Cl)s1	3%	.	.	.	13%	3%	-2%	.
CCNC(=S)NC1CC2CCCC(C1)N2CCc1ccccc1 (stereo not given)	1%	.	.	.	7%	-11%	0%	.
CCCOc1ccc(S(=O)(=O)N2CCN(C)CC2)c2ccccc12	-2%	-2%	.	.	-12%	11%	-19%	-3%
COc1cccc(NC(=O)C2CCN(S(C)(=O)=O)CC2)c1	-1%	0%	4.1%	-16%	-8%	.	8%	3%
Cc1cc(Nc2cccc(Cl)c2C)n2nc(Cc3ccccc3)nc2n1	.	-19%[46.1 µM]	-5.5%	3%	.	?	.	1%[46.1 µM]
COc1ccc(/C=C2\SC(=O)N(CCNC(=O)Cc3coc4cc(C)ccc34)C2=O)cc1OC	11%	-2%	-12%	?	?	40µM*	-21%	?
CC(C)CN(C(=O)COC(=O)c1ccc([N+](=O)[O-])s1)c1c(N)n(Cc2ccccc2)c(=O)[nH]c1=O	2%	-15%	.	.	.	?	-17%	8%
Cc1ccc(NC(=S)NC(C)(C)C)c([N+](=O)[O-])c1	2%	-8%	.	.	-5%	36%[activator]	-11%	2%[46.1 µM]
Brc1ccc(Oc2cc(Br)c(Br)cc2Br)c(Br)c1	2%	.	1.2%&8.7%	?	.	-17%	7%	.
Cn1c(COc2ccccc2)nnc1SCC(=O)Nc1ccc2c(c1)OCO2	7%	-6%	1.4%	1%	-4%	4%	-11%	-2%
CCOc1ccccc1NC(=O)c1cc(C(=O)Nc2ccccc2OCC)cc(N2C(=O)CCC2=O)c1	-1%	.	.	.	-4%	-21%	10%	.
Cc1ccc2c(c1)Cc1c(nc(-c3ccc(Cl)cc3)nc1SCC(=O)N1CCCCC1)O2	.	10%[46.1 µM]	-0.6%	0%	.	0%	.	10%[46.1 µM]
O=c1c2ccccc2nc(/C=C/c2ccc(Cl)cc2)n1CCO	-3%	?	.	.	-7%	-25%	5%	-22%
N#Cc1ccccc1S(=O)(=O)N1CCN(C(=O)[C@H](Cc2ccccc2)NC(=O)c2ccco2)CC1	2%	-4%	.	.	.	-28%	-5%	33%
O=C(Nc1cc(C(F)(F)F)ccc1-n1cncn1)c1ccc([N+](=O)[O-])o1	-39%	-13%	.	.	.	-30%	-17%	-22%
Cc1nc2ccccc2c(=O)n1N	2%	4%	-0.7%	-4%	-12%	-7%	0%	0%
CN(C)c1ccc(NC(=O)CSc2n[nH]c(-c3ccncc3)n2)cc1	.	-7%	.	.	.	-7%	-6%	-8%[46.1 µM]
CCOc1ccc(C)cc1S(=O)(=O)NC1CCCCCC1	-4%	?	.	.	-39%	68%[activator]	2%	-19%[46.1 µM]
O=C(NNC(=O)c1ccccc1O)c1ccco1	5%	26%[46.1 µM]	.	.	.	18%	-1%	?

Single values from the list:
For RE007 growth inh, CCCOc1ccc(S(=O)(=O)N2CCN(C)CC2)c2ccccc12 shows -19%
For Cruzain inh Det, COc1cccc(NC(=O)C2CCN(S(C)(=O)=O)CC2)c1 shows 4.1%
